PMP22 txn – PMP22 gene transcription modulation. S16 Pmp22-F2sN Schwann cells (luciferase reporters placed in the Pmp22 gene), FLuc/NLuc coincidence luminescence, 24 h. Potency, µM (titrated, usually from 57.5 µM), for inactives: top-dose activity change, negative = inhibition, actives largely listed as inhibitors. actives 2% (n = 43,000). AID 1508649; active = clear falling dose curves in both reporters; inconclusive = both reporters move, but less clearly or upward; inactive = either reporter flat; the % is the NLuc reporter signal; further: on the % scale 0 is the no-effect control and ±100 the full control effect; some results filed as inactive show a strong effect at the top dose
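Luminescent read-out of sequential FLuc and NLuc signals from a reporter embedded in the Pmp22 3' UTR of S16 Schwann cells, taken after 24 h compound exposure at 37C; compounds reducing both signals score as inhibitors of expression.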
HTT promoter inh – inhibits huntingtin promoter activity. actives 0.93% (n = 48,000). AID 1508623. HEK293 HTT promoter firefly luciferase reporter (activity 0% = vehicle and -100% = no light), 24 h. Potency, µM (highest dose often 57.5 µM), for the others: top-dose activity change, negative = inhibition, usual class: inhibitors; active means well fitted inhibition curve with a large enough effect; inconclusive means small, poorly fitted or top-dose-only effect; inactive means no such curve, though single readings can be large or run the other way; further: nearly all actives have a fitted effect of over 50% in size
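Firefly luciferase signal from promoter-reporter HEK293 cells was scaled between vehicle (0%) and zero RLU (-100%). Compounds were tested at final concentrations of up to 57.5 uM over 24 h at 37 degrees C. PTC124 at 50 uM final served as control inhibitor.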
* = called active by the depositor; ? = inconclusive; nt = not tested or not shown; [ ] = another dose, or the depositor's remark. Potency means the concentration at half of the fitted maximal effect.

Under each structure: PMP22 txn	HTT promoter inh
CCc1cccc(NC(=O)Cn2c(=O)n(CCC(=O)NCC3CCCO3)c(=O)c3cc(OC)c(OC)cc32)c1 (centres undefined)
    30%	-8%
O=C(c1cc(=O)c2cc(Cl)ccc2o1)N(Cc1ccccc1)C1CCS(=O)(=O)C1 (centres undefined)
    -45%	20%
Cc1ccc(-n2ncc3c(NCCCn4ccnc4)ncnc32)cc1Cl
    ?	-19%
COc1cccc(C2CC(=O)Nc3c2c(=O)n(C)c2ncnn32)c1OC (centres undefined)
    -26%	-3%
CCC1CN(C(=O)N2CCC(C(=O)NCc3ccccc3C)CC2)c2ccccc2O1 (centres undefined)
    -26%	?
O=C(Nc1c(O)c2ccccc2oc1=O)c1ccccc1Cl
    12%	34%[activator]
O=C(Oc1ccc(F)cc1)c1nc(SCc2ccccc2F)ncc1Cl
    -32%	-6%
CC1CCCN(S(=O)(=O)c2ccc(N3CCCCS3(=O)=O)cc2)C1 (centres undefined)
    ?	-28%
Cc1cccc(NC(=O)C(Cc2ccccc2)NS(=O)(=O)c2ccc3c(c2)c(=O)n(C)c(=O)n3C)c1 (centres undefined)
    -4%	-12%
Cc1cc(-n2c(C)nc3ccccc3c2=O)ccc1NC(=O)c1ccccc1[N+](=O)[O-]
    ?	-8%
CCOc1ccc(-c2c(C)nn3c(C)c(C(=O)NC(C)c4ccccc4)cnc23)cc1OCC (centres undefined)
    -21%	-27%
C#CC(C)(CC)NC(=O)Cn1nnc(-c2ccc(OCc3ccccc3C)cc2)n1 (centres undefined)
    -11%	-4%
Cc1ccc(CN2CCC(CNC(=O)Nc3ccccc3F)CC2)cc1
    ?	-12%
COc1cc(NC(=O)Nc2cccc(-c3noc(C)n3)c2)cc(OC)c1OC
    -8%	-28%
COc1ccccc1NC(=O)c1ccc(COc2ccc(C)c(C)c2)o1
    ?	-5%
Cc1ccc(C(=O)N(CCCN)[C@@H](c2nc3cc(Cl)ccc3c(=O)n2Cc2ccccc2)C(C)C)cc1
    nt	-17%
CCC(=O)N1CCc2cc(S(=O)(=O)NC(C(=O)NCCc3ccc(C)cc3)C(C)C)ccc21 (centres undefined)
    ?	-12%
CC(C)c1nn2c(=O)cc(COC(=O)c3ccccc3NC(=O)COc3ccccc3)nc2s1
    -18%	-11%
COc1ccc(C)cc1NC(=O)C1CCN(S(=O)(=O)c2cccc3nonc23)CC1
    ?	-9%
Cc1ccc(NC(=O)CSc2nc3c([nH]c4ccccc43)c(=O)n2-c2ccccc2)cc1Cl
    ?	?
Cc1ccc(C(=O)OCc2cc(=O)n3nc(CC(C)C)sc3n2)cc1
    -14%	-17%
COc1ccc(CCC(=O)NCCc2csc(-c3ccc(C(F)(F)F)cc3)n2)cc1
    -44%	?
CCc1ccc(Cn2c(CNS(=O)(=O)c3ccc([N+](=O)[O-])cc3)nc3cccnc32)cc1
    ?	-9%
COc1cc(NC(=O)CCc2c(C)nn(-c3ccc4nnc(C)n4n3)c2C)cc(OC)c1OC
    4%	-1%
Cc1ccccc1CNC(=O)c1cccc(NC(=O)c2nsc3ccccc23)c1
    ?	3%
Cc1cc(N2CCCCC2)nc2ccc(NC(=O)/C=C/c3ccccc3Cl)cc12
    ?	-28%
COc1ccccc1NC(=O)CSc1nc2c(oc3ccccc32)c(=O)n1Cc1ccco1
    -32%	-17%
O=C(Cn1ncc2c([nH]c3ccccc32)c1=O)NCc1cccc(Cl)c1
    7%	7%
COc1cc(C(=O)NC2CC(=O)N(c3cccc(F)c3)C2)cc(OC)c1OC (centres undefined)
    2%	9%
Oc1ccc(Cl)cc1Sc1cc(Cl)ccc1O
    nt	?
COc1cccc(CNC(=O)Cn2ncn3nc(-c4cccs4)cc3c2=O)c1
    ?	-13%
CCCCOc1ccc(C(=O)Nc2cc(-c3cn4cccnc4n3)ccc2OC)cc1
    -6%	-2%
CCOc1ccc2nc(N3CCCC(C(=O)Nc4ccc(OC)c(Cl)c4)C3)sc2c1 (centres undefined)
    -11%	3%
CCN(CCCNC(=O)CSc1cc(=O)n(C)c2cc(Cl)ccc12)c1ccccc1
    8%	-20%
CN1CCN(c2ncc3c(n2)CCN(Cc2cc(Br)cs2)C3)CC1
    ?	-19%
CCc1ccc(-n2nc3ccc(NC(=O)c4ccc(C#N)cc4F)cc3n2)cc1
    -15%	-5%
CCOC(=O)c1ccc(NC(=O)CN2c3ccccc3S(=O)(=O)c3ccccc32)cc1
    -25%	?
COc1cc(C(=O)NC2(C(F)(F)F)C(=O)NC(C)=C2C#N)cc(OC)c1OC (centres undefined)
    6%	-7%
Cc1cc2[nH]c(=O)c(=O)[nH]c2cc1S(=O)(=O)N1CCN(c2ccccc2)CC1
    -2%	8%
CCOC(=O)c1cnc2c(ccc3ccccc32)c1Nc1ccc(OC)cc1OC
    ?	-22%

Part of the list above, as a markdown table:
| SMILES | PMP22 txn | HTT promoter inh |
| --- | --- | --- |
| CCN(CCCNC(=O)CSc1cc(=O)n(C)c2cc(Cl)ccc12)c1ccccc1 | 8% | -20% |
| Cc1ccc(C(=O)OCc2cc(=O)n3nc(CC(C)C)sc3n2)cc1 | -14% | -17% |

Next part.
Under each structure: PMP22 txn	HTT promoter inh
CCOc1ccc(S(=O)(=O)N2CCC(c3ccncc3)CC2)cc1
    -17%	?
COc1cccc(CNC(=O)Cc2ccc(NC(=O)N3CCCCc4ccccc43)cc2)c1OC
    35%	-25%
CCOC(=O)C1CCCN(C(=O)Cn2nc(CC)n3c(cc4occc43)c2=O)C1 (centres undefined)
    -31%	-16%
Cc1ccc(Nc2c(C(C)C)c(C)c(C#N)c3nc4ccccc4n23)cc1
    ?	?
CCOc1ccccc1C(=O)Nc1cc2c(cc1C)n(C)c(=O)c(=O)n2C
    0%	-6%
CCn1c(C)c(C)c2cc(C(=O)NCc3ccc(OC)cc3OC)ccc21
    -14%	2%
COc1ccc(-c2nc3ccccc3o2)cc1NC(=O)COc1ccc(C)c(C)c1
    -59%	23%
Cc1ccc(NC(=O)Cn2cc(S(=O)(=O)c3ccc(C)cc3)c(=O)c3cc4c(cc32)OCO4)cc1
    4%	-19%
CN(C(=O)Cn1cc(S(=O)(=O)Cc2ccccc2Cl)c2ccccc21)c1ccccc1
    -19%	-28%
CN(C)CCNC(=O)c1ccc(Cn2c(SCc3ccc(F)cc3)nc3cccnc32)cc1
    10%	61%[activator]
CCOc1ccc(NC(=O)c2c(NC(=O)Cc3ccccc3)sc3c2CCCC3)cc1
    -26%	-16%
COCCNC(=O)c1ccc(Cn2c(SCC(=O)NC(C)C)nc3ccccc3c2=O)cc1
    -5%	1%
Cc1ccc(-c2c(C(=O)N3CCN(c4ccc(F)cc4)CC3)oc(=O)c3ccccc23)cc1
    ?	?
Cc1cccc(N2CCN(C(=O)C3CCN(c4ncnc5c4nc4n5CCCCC4)CC3)CC2)c1C
    ?	?
CC(=O)OCC(=O)[C@@]1(O)CCC2C3CCC4=CC(=O)CC[C@]4(C)C3[C@@H](O)C[C@@]21C (some centres undefined)
    nt	3%
Cc1ccccc1NS(=O)(=O)c1ccc2[nH]cc(C(=O)NCCc3ccccc3)c(=O)c2c1
    -34%	?
CCOc1ccc(-c2nn(CC(=O)NC3CCCC3)c3c2cnc2ccc(F)cc23)cc1
    0%	41%[activator]
O=C(COc1ccccc1[N+](=O)[O-])N1CCC(c2nc3ccccc3o2)CC1
    -32%	-12%
O=C(Cn1ccc2ccccc2c1=O)NCCC(=O)Nc1ccc(F)cc1F
    6%	-21%
CCC(=O)Nc1nnc(S(=O)(=O)N2CCCCCC2)s1
    -9%	-8%

5 entries out of the list above, arranged by the value under HTT promoter inh, smallest number first.
| molecule | HTT promoter inh |
| --- | --- |
| COc1cccc(CNC(=O)Cc2ccc(NC(=O)N3CCCCc4ccccc43)cc2)c1OC | -25% |
| O=C(Cn1ccc2ccccc2c1=O)NCCC(=O)Nc1ccc(F)cc1F | -21% |
| CCOc1ccc(NC(=O)c2c(NC(=O)Cc3ccccc3)sc3c2CCCC3)cc1 | -16% |
| O=C(COc1ccccc1[N+](=O)[O-])N1CCC(c2nc3ccccc3o2)CC1 | -12% |
| CC(=O)OCC(=O)[C@@]1(O)CCC2C3CCC4=CC(=O)CC[C@]4(C)C3[C@@H](O)C[C@@]21C (some centres undefined) | 3% |

The list continues.
Under each structure: PMP22 txn	HTT promoter inh
COc1cccc(Cc2nc3ccccc3nc2SCC(=O)N2CCc3ccccc32)c1
    1%	-12%
Cc1ccc(N(CC(=O)N2CCN(c3ccc(Cl)cc3)CC2)S(=O)(=O)c2c(C)noc2C)cc1
    -16%	?
Cc1cc(C)cc(NC(=O)C(=O)NCC(c2cccnc2)N2CCN(c3ccccc3)CC2)c1 (centres undefined)
    -3%	-10%
COc1ccccc1CNC(=O)c1ccc2c(c1)CCN2S(=O)(=O)c1ccc(Cl)cc1
    ?	-31%
CC1=C(C(=O)N2CCCCC2)C(c2cccc(Cl)c2)n2c(nc3ccccc32)N1 (centres undefined)
    -14%	-7%
COc1cc(C)c(Cl)cc1S(=O)(=O)NCCc1c(C)[nH]c2ccccc12
    -15%	-3%
CCc1ccccc1NC(=O)c1cc2nc(-c3ccc(OC)c(OC)c3)cc(C(F)(F)F)n2n1
    -5%	-5%
Cc1ccc(C)c2sc(NC(=O)c3ccc(S(=O)(=O)N4CCCC4)cc3)nc12
    -7%	-29%
Cc1ccc(Cl)cc1NC(=O)Cn1c(=O)n(CCC(=O)NCc2ccc3c(c2)OCO3)c(=O)c2sccc21
    ?	-10%
COc1ccc(NC(=O)c2cnc(SCC(=O)Nc3nc4ccc(C)cc4s3)n(C)c2=O)cc1
    -10%	19%
COC(=O)c1c(NC(=O)COc2cc(C)ccc2C(C)C)sc2c1CCC(C)C2 (centres undefined)
    -7%	-7%
Cn1c(=O)c2c(SCC(=O)NCc3ccco3)nc(-c3ccccc3)nc2n(C)c1=O
    -8%	-3%
CC(C)CCNC(=O)c1cn(C)c2ccc(S(=O)(=O)N3CCCC3)cc2c1=O
    -18%	-9%[11.5 µM]
CCS(=O)(=O)c1ncc(N(Cc2ccc(F)cc2)Cc2ccco2)c(C(=O)Nc2cc(C)ccc2C)n1
    2%	-29%
Cc1nc(-c2ccc(Cl)cc2)sc1CCNC(=O)C(=O)Nc1ccc(F)cc1F
    -28%	-6%
CCCCc1nn2c(=O)cc(COC(=O)c3ccccc3NC(=O)c3cccc(C)c3)nc2s1
    -2%	-16%
Cc1ccc(CNC(=O)c2ccc(N3CCCC3)c(NC(=O)Nc3ccc(F)c(Cl)c3)c2)cc1
    38%	-29%
Cc1cccc(-c2nnc3n(CCc4ccccc4)c(=O)c4ccccc4n23)c1
    ?	?
CCc1ccccc1N(CC)C(=O)C(=O)Nc1ccc2nc3n(c(=O)c2c1)CCCCC3
    ?	-10%
O=C(c1ccc(CSc2nc3ccncc3n2Cc2ccccc2)cc1)N1CCCCCC1
    -21%	-19%

Looked up one by one from above, 2 records:
Under each structure: PMP22 txn	HTT promoter inh
COc1ccc(CCC(=O)NCCc2csc(-c3ccc(C(F)(F)F)cc3)n2)cc1
    -44%	?
CCOc1ccc(-c2nn(CC(=O)NC3CCCC3)c3c2cnc2ccc(F)cc23)cc1
    0%	41%[activator]

Carrying on.
Under each structure: PMP22 txn	HTT promoter inh
CC(=O)NC1CC(=O)N(c2ccc3c(c2)OCCO3)C1 (centres undefined)
    -7%	8%
Cc1ccc(-c2noc(CNS(=O)(=O)c3ccc(F)cc3)n2)cc1
    -17%	-28%
CCc1nn(C(CC)C(=O)NCc2ccc(F)cc2)c(=O)c2cc3occc3n12 (centres undefined)
    -20%	-18%
COc1ccc(CCNC(=O)CCc2cn(Cc3ccccc3Cl)c3ccccc23)c(OC)c1
    ?	-26%
COc1ccc(Nc2cc(C(=O)NC3CCCC3)c3ccccc3n2)cc1
    -27%	-6%
COc1ccccc1N1CCN(c2csc3ccccc3c2=O)CC1
    ?	33%[activator]
COCCNC(=O)CCCN1C(=O)CCn2nc(-c3cccn3C)cc21
    -11%	9%
Oc1c(C(Nc2ccccn2)c2ccccc2F)ccc2cccnc12 (centres undefined)
    ?	?
Cc1ccc(NS(=O)(=O)c2ccc3oc(=O)c4ncn(C)c4c3c2)cc1C
    ?	-13%
CCOC(=O)C(CC)Sc1ncnc2c1c(-c1ccccc1)cn2-c1ccc(OC)cc1 (centres undefined)
    -2%	-19%
COc1cc(Cl)c(C)cc1NC(=O)CSc1nc2c(c(=O)[nH]1)CCC2
    20%	-14%
O=C(Cn1c(=O)n(-c2ccccc2Cl)c(=O)c2sc3ccccc3c21)NC1CCCCC1
    ?	-12%
C#CCN(C)CC1=Cc2ccccc2Oc2ccccc21
    nt	-12%
C[C@@H](O[C@H]1OCCN(Cc2n[nH]c(=O)[nH]2)[C@H]1c1ccc(F)cc1)c1cc(C(F)(F)F)cc(C(F)(F)F)c1
    nt	-27%
CCOc1ccc(NC(=O)Nc2c(C)n(C)n(-c3ccccc3)c2=O)cc1
    4%	14%
COC(=O)c1ccc2c(c1)N(Cc1cc(C)ccc1C)C(=O)c1ccccc1S2(=O)=O
    -3%	?
COc1ccc(NC(=O)Cn2c(=O)n(Cc3nc(-c4ccccc4)no3)c(=O)c3cc4c(cc32)OCO4)c(OC)c1
    -3%	-9%

Compound activity deposited in PubChem by National Center for Advancing Translational Sciences (NCATS).
